Screening results from PubChem.
HPGD block = HPGD (human) dehydrogenase inhibition; P15428; purified HPGD, NADH fluorescence kinetic, PGE2 substrate; Potency, µM, inactives show top-dose activity change, negative = inhibition, usual class: inhibitors; actives 4.3% (n = 150,000); AID 894; active = well fitted inhibition curve with a large enough effect (not every such curve was filed as active); inconclusive = small, poorly fitted or top-dose-only effect, or another doubt; inactive = no such curve, though single readings can be large or run the other way;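 also: top concentration of the series not given in the record; plate controls included wells without enzyme; inactives centre near -10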
Target sequence (P15428 whole entry, looked up): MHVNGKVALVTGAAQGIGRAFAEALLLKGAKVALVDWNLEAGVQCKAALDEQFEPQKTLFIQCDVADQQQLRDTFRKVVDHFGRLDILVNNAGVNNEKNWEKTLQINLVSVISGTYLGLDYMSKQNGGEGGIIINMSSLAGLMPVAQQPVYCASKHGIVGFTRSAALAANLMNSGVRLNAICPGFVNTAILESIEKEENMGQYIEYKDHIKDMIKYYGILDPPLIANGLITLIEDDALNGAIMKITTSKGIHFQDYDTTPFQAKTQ
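NADH formation kinetics: reaction with 30 uM PGE2 and 1 mM NAD+ (final), 20 nM enzyme, Tris-HCl pH 8 with Tween 20, after 15 min compound preincubation at room temperature. Fluorescence change, last versus first of five reads.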
The depositor's hits bear a star; u = inconclusive. % is scaled to controls: 0 for no effect and ±100 for the full control effect; potency is read from the fitted curve at half-maximal effect.

| SMILES | HPGD block |
| --- | --- |
| CC1=C(C(=O)OCc2ccccc2)C(c2ccoc2)C(C#N)=C(N)O1 (stereo not drawn) | -18.8% |
| Cc1cccnc1N(C(=O)Nc1ccccc1)C1=NCC(C)(C)S1 | -4.9% |
| Cc1cc(/C=N\NC(=O)CC(=O)NC2CCCCC2)c(C)n1-c1ccc(Cl)c(Cl)c1 | -9.3% |
| CC1CN(C(=O)c2cc3c(=O)n4ccccc4nc3s2)CC(C)O1 (stereo not drawn) | u |
| Cc1oc(C(C)(C)C)cc1C(=O)NCC(=O)NCC(=O)O | -13.1% |
| Cc1onc(-c2ccccc2Cl)c1C(=O)N1CCCc2ccccc21 | -7.6% |
| O=C(O)CCSc1nnc(SCC(=O)NCC(F)(F)F)s1 | -0.8% |
| Cc1ccc(C(=O)O)cc1N=Cc1cc(Br)cc(Br)c1O | u |
| COC(=O)c1ccc2nc(NC(=O)CN3C(=O)CCC3=O)sc2c1 | u |
| Cc1c(C(=O)CN2CCSCC2)c2ccccc2n1C | -0.6% |
| O=C(CSc1nc2ccccc2s1)NC(=O)NCc1ccco1 | 25.1µM* |
| c1ccc2sc(SCN(C3CCCCC3)C3CCCCC3)nc2c1 | -11.9% |
| C/C(=N/NS(=O)(=O)c1ccc(Cl)cc1)c1cccc(O)c1 | -6.5% |
| O=C(COc1cccc2ccccc12)N1CCN(c2ccccn2)CC1 | -15.3% |
| COc1ccc(-c2noc(CCC(=O)NC3CCN(Cc4ccccc4)CC3)n2)cc1 | -2.6% |
| O=C(O)CSc1nnc(-c2ccccc2O)n1Cc1ccccc1 | -6.6% |
| O=C(CC1(O)C(=O)Nc2ccccc21)c1ccccc1 (stereo not drawn) | -10.2% |
| O=C(Nc1ccccc1-c1ccccc1)c1cnccn1 | -10.5% |
| C/C(=N\NC(=O)Cn1nc(C)c(Br)c1C)c1cccs1 | -4.9% |
| O=C(Nc1cccc2ccccc12)C1CCN(C(=O)NCc2ccccc2)CC1 | -4.0% |
| CSc1nc2ccc(NS(=O)(=O)c3cccc(Cl)c3Cl)cc2s1 | 15.8µM* |
| C/C(=N\NC(=O)c1ccn[nH]1)c1cn(C)nc1C | -8.3% |
| O=C(c1ccco1)N1CCN=C1SCc1ccccc1F | -17.6% |
| O=C(O)c1cccc(Cn2c(Cl)c(/C=N/NC(=O)c3ccccc3)sc2=O)c1 | -28.5% |
| O=C(Oc1cccc(Br)c1)c1cccnc1 | -1.7% |
| O=c1c(F)cn(C2CCCO2)c(=O)n1Cc1c(F)cccc1Cl (stereo not drawn) | -10.4% |
| Cc1nc2cc(Cl)c(Cl)cc2nc1C | -10.8% |
| Cc1ccc2oc(=O)c3cnn(CC(=O)Nc4cc(-c5cccc(F)c5)no4)c3c2c1 | -9.1% |
| CC1CCCC2(C1)NC(=S)N(c1ccccc1)N2 (stereo not drawn) | -6.3% |
| NC(=O)CSc1nc2cc([N+](=O)[O-])ccc2n1-c1cccc(C(F)(F)F)c1 | -2.3% |
| Cc1ccccc1NC(=O)c1sc2nc[nH]c(=O)c2c1C | u |
| CCn1c(=O)c(C2=NS(=O)(=O)c3ccccc3N2)c(O)c2ccccc21 | -17.0% |
| Cc1ccccc1NC(=O)/C(=C/c1cccs1)NC(=O)c1ccco1 | -0.7% |
| O=C(NCCO)/C(=C\c1ccc(Br)cc1)NC(=O)c1cccs1 | -5.7% |
| O=C(COn1nnc2ccc(Cl)cc21)NC12CC3CC(CC(C3)C1)C2 | -17.2% |
| Cc1nnnn1/C(=C\c1ccccc1)C(=O)OCC(=O)NC(C)(C)C | -4.4% |
| CCOC(=O)N1CCN(C(=O)COc2ccc3c(c2)C(=O)CC2(CCN(C(C)=O)CC2)O3)CC1 | u |
| Nc1ccc(C(=O)Oc2ccccc2)c(O)c1 | -20.4% |
| O=C(Nc1ccc(Cl)cc1C(=O)NCC1CCCO1)c1ccco1 (stereo not drawn) | -12.7% |
| CCOC(=O)CSc1nnnn1-c1cc(OC)ccc1OC | -15.0% |
| CCn1c2ccccc2c2cc(NC(=O)CSc3nnc(-c4cccc(F)c4)o3)ccc21 | -10.8% |
| Cc1ccc2c(c1)c1ncnc(N3CCOCC3)c1n2C | u |
| CCOc1[nH]n(-c2ccc(Cl)cc2)c(=O)c1C=Nc1ccc(C)cc1 | -5.7% |
| O=C(/C=C/c1ccc(-c2ccccc2[N+](=O)[O-])o1)c1ccccc1 | -27.7% |
| COc1ccc(C(=O)Nc2cccc(/C(C)=N/NC(=O)c3ccc([N+](=O)[O-])c(C)c3)c2)cc1OC | -10.9% |
| COc1ccccc1CNC(=O)Cc1cc(=O)[nH]c(=O)[nH]1 | -14.4% |
| CCCn1nnc(NC(=O)c2cccc(OCC(C)C)c2)n1 | -15.0% |
| CCc1nc(SCc2cccnc2)c(C#N)cc1C | u |
| CCN(CC)c1ccc2cc(C(=O)Nc3ccccn3)c(=O)oc2c1 | -29.0% |
| COc1ccc(NC(=O)c2c(OC)cccc2OC)c(OC)c1 | -5.8% |
| CCOC(=O)c1cc(-c2ccccc2)sc1NC(=O)C(C)OC(=O)c1cccnc1Cl (stereo not drawn) | -18.5% |
| O=C(Nc1ccc(Cl)c(Cl)c1)N1CC=C(c2ccccc2)CC1 | -7.4% |
| CCOc1ccccc1NC(=O)c1ccc(NC(=O)c2ccco2)cc1 | -8.0% |
| CCCCC#Cc1nc(NC)c2ncn([C@@H]3O[C@@H](CO)[C@H](O)[C@H]3O)c2n1 | 3.6% |
| O=C(O)c1cc2c(s1)-c1ccccc1OC2 | u |
| CC1(C)CC(=O)C(Sc2ccccc2C(=O)O)=C(O)C1 | -4.7% |
| CC(=O)Nc1sc(N/N=C\c2cccc(Cl)c2)nc1-c1cccs1 | -14.8% |
| O=C(Nc1cccc(F)c1)N(Cc1ccc(Cl)cc1)CC(O)C(F)(F)F (stereo not drawn) | -20.6% |
| Cc1cc(C)nc(SCc2cc(=O)c(OC(=O)c3ccco3)co2)n1 | -9.5% |
| CC(C)(C)C(=O)OCOP(=O)(OCOC(=O)C(C)(C)C)C(C)(Oc1ccc(O)cc1)P(=O)(OCOC(=O)C(C)(C)C)OCOC(=O)C(C)(C)C | -3.0% |

Other results follow.
| SMILES | HPGD block |
| --- | --- |
| Cc1cc(=S)[nH]c2ccccc12 | 14.1µM* |
| CCC(C)N(C(=O)COC(=O)/C=C/c1ccc(O)c(OC)c1)C1CCS(=O)(=O)C1 (stereo not drawn) | -24.2% |
| Cc1ccc2c(CC(=O)N3CCN(S(=O)(=O)c4ccc5c(c4)OCCO5)CC3)coc2c1 | -6.8% |
| COc1ccc(Cl)cc1C(=O)OCC(=O)NC(=O)c1cccn1C | -8.6% |
| CCC(=O)N1CCCc2cc(S(=O)(=O)N3CCN(C4CCCCC4)CC3)ccc21 | -7.6% |
| Cc1cccc(NC(=O)N2CCC(NC(=O)c3ccccc3C)CC2)c1 | -0.5% |
| COc1cccc(CN(C)C(=O)c2ccc(S(=O)(=O)N3CCCC3)cc2)c1OC | -5.5% |
| c1ccc(-c2ncnc3nc4n(c23)CCC4)cc1 | -9.4% |
| Oc1cc(Cc2ccccc2)cnc1CN1CCCCC1 | 25.1µM* |
| Cc1ccc(NC(=O)c2c(C(F)(F)F)nn(C)c2SCc2cccc(C(F)(F)F)c2)cc1C | -15.8% |
| COC(=O)c1ccc2ccn(CC(=O)NC3CCCCC3)c2c1 | u |
| COc1ccc(OCC(=O)N/N=C(\C)c2ccc(-n3ccnc3)cc2)cc1 | u |
| NC(=O)SCC(=O)Nc1ccc(Cl)cc1 | 4.47µM* |
| COc1ccc(CCNC(=O)CSc2nnc(-c3ccc(F)cc3)o2)cc1OC | -1.8% |
| CC1(C)Cc2ccccc2-c2nnc(SCC(=O)Nc3nc4ccccc4s3)n21 | -6.3% |
| COC(=O)CSc1nc(N)c(C#N)c(C(C)C)c1C#N | u |
| COc1ccc(C)cc1S(=O)(=O)N1c2ccccc2CC1C (stereo not drawn) | -6.2% |
| CN(C)c1ccc(CNc2ncc(Br)cc2Br)cc1 | -21.5% |
| COc1ccc(CCN2C(=O)CC(N3CCOCC3)C2=O)cc1OC (stereo not drawn) | -13.3% |
| O=C(CCC1CCCC1)N1CCN(C(=O)COc2ccccc2)CC1 | -7.7% |
| NC(=O)c1ccc(NC(=O)COC(=O)CC(NC(=O)c2ccccc2Cl)c2ccccc2)cc1 (stereo not drawn) | -4.0% |
| CCCn1c(-c2ccc(F)cc2)nc2c(NCCN3CCCC3)nc(C)nc21 | u |
| COc1ccc(N2C3=[N+](CC2(C)O)c2ccccc2CC3)cc1 (stereo not drawn) | -11.7% |
| CC1(C)CC(=O)C=C(Nc2ccccn2)C1 | -23.4% |

The closing 4 entries of the part above are carried over, then new ones follow:
| SMILES | HPGD block |
| --- | --- |
| NC(=O)c1ccc(NC(=O)COC(=O)CC(NC(=O)c2ccccc2Cl)c2ccccc2)cc1 (stereo not drawn) | -4.0% |
| CCCn1c(-c2ccc(F)cc2)nc2c(NCCN3CCCC3)nc(C)nc21 | u |
| COc1ccc(N2C3=[N+](CC2(C)O)c2ccccc2CC3)cc1 (stereo not drawn) | -11.7% |
| CC1(C)CC(=O)C=C(Nc2ccccn2)C1 | -23.4% |
| Cc1ccc(Cn2nnc3c(=O)n(CC(=O)c4ccccc4)cnc32)cc1 | u |
| COC(=O)C(Cc1ccc(OC(=O)c2ccccc2C)cc1)N1Cc2ccccc2C1=O (stereo not drawn) | -7.7% |
| O=C(Nc1ccccc1)c1cccc(S(=O)(=O)Nc2ccccn2)c1 | -23.7% |
| COc1cc(OC)cc(-c2nc3ccccc3c(=O)n2NC(=O)c2cccnc2Cl)c1 | -8.8% |
| COc1ccc(C2CC(C(F)(F)F)n3nc(C(N)=O)c(Cl)c3N2)cc1OC (stereo not drawn) | -4.9% |
| CCOC(=O)CN(Cc1ccc(OC)c(OC)c1)S(=O)(=O)c1ccc(OC)cc1 | 1.9% |
| C[N+]1=C2CCCCCN2C(O)(c2ccccc2)C1 (stereo not drawn) | -14.8% |
| Cc1c(F)cccc1NS(=O)(=O)c1ccccc1C#N | -5.9% |
| CCOC(=O)C(C(=O)Nc1cccc(C)n1)C1CCCCC1 (stereo not drawn) | -5.9% |
| CC(C)CC(NC(=O)C(Cc1ccc(OCc2ccccc2)cc1)NC(=O)OC(C)(C)C)C(N)=O (stereo not drawn) | -23.9% |
| CN(C)c1ccc(/C=N/NC(=O)c2ccc(Cl)cc2)cc1 | -15.8% |
| Cc1cc(C)nc(N/C(=N/S(=O)(=O)Cc2ccccc2)Nc2ccccc2)n1 | -13.1% |
| O=C(NCN1CCCCC1)c1cnccn1 | -7.9% |
| COc1cc(Br)cc(CN2CCN(C=O)CC2)c1O | 3.7% |
| CCCc1nc2c([nH]1)C(c1cccnc1)C(C#N)=C(N)O2 (stereo not drawn) | -6.6% |
| C=C(C(C)=O)C(O)c1ccc(C(F)(F)F)cc1 (stereo not drawn) | -6.5% |
| COCC(=O)N(C)c1nnc(-c2cnc(C)cn2)s1 | u |
| COc1ccc(C(=O)c2sc3nc(-c4ccccc4)ccc3c2N)cc1 | -13.8% |
| CCCOc1ccc(CC2CCC(=O)NC2=O)cc1 (stereo not drawn) | 1.2% |
| Cc1cccc(CNc2cc(-c3cccnc3)ncn2)c1 | u |
| CC(=O)Nc1ccc(S(=O)(=O)Nc2nc3ccccc3nc2Nc2ccccc2)cc1 | -18.2% |
| Cc1cc(C)c2nc(/N=C(\N)NC(=O)Nc3ccccc3)nc(C)c2c1 | -10.4% |
| C/C(=N\Nc1ccc([N+](=O)[O-])cc1[N+](=O)[O-])C(C)(C)C(C(=O)O)C(=O)O | -21.1% |
| CC1CCCCC1NC(=O)C1CCN(S(=O)(=O)c2ccc3c(c2)CCC(=O)N3)CC1 (stereo not drawn) | -14.9% |
| Cc1cccc(C(=O)NC(=S)NNC(=O)c2ccc(Cl)cc2)c1 | -5.5% |
| O=C(C/C(=N/O)c1ccccc1O)C(F)F | 15.8µM* |
| CC(=O)Nc1ccc(C(=O)CSc2nnc3scc(-c4ccccc4)n23)cc1 | -10.9% |
| CCCCCOc1ccc(NC(=O)C2OC3OC(C)(C)OC3C3OC(C)(C)OC23)cc1 (stereo not drawn) | -0.4% |
| Cc1ccc2nc(N3CCN(C)CC3)c(C#N)cc2c1 | u |
| COCCNC(=O)CSc1nc2ccc(N3CCOCC3)cc2c(=O)n1Cc1ccc(OC)cc1 | u |
| O=C(CN1C(=O)CCC1=O)Nc1nc(-c2ccccn2)cs1 | -3.6% |
| COc1cccc([C@@H]2Oc3ccc(OC)cc3C[C@H]2O)c1 | -9.6% |
| CCNC(=O)c1ccc(C2SCC(=O)N2CCc2ccccc2)cc1 (stereo not drawn) | 22.4µM* |
| FC(F)(F)c1nnc2ccc(N3CCN(c4ccccc4)CC3)nn12 | u |
| CN(c1ccccc1)C1CCCCC1NS(=O)(=O)c1ccc(Cl)cc1 (stereo not drawn) | -3.7% |
| CC(NC(=O)Nc1ccccc1)C(c1ccccc1)N1CCOCC1 (stereo not drawn) | -10.4% |
| CCOc1cc(C)c(Cl)cc1S(=O)(=O)NCCOC | -0.7% |
| COc1ccc(N2CCN(C(=O)C3=NNC(=O)CC3)CC2)cc1 | -3.1% |
| CC1(C)Cc2nc3sc4c(N(CCO)CCO)ncnc4c3cc2CO1 | u |
| O=C(Nc1ccc(S(=O)(=O)NCc2ccccc2)cc1)Nc1ccc2c(c1)OCO2 | -4.8% |
| Oc1c(C(c2ccco2)N2CCOCC2)sc2ncnn12 (stereo not drawn) | -23.7% |
| Cc1nc(Oc2ccc(Cl)cc2)c2oc3ccccc3c2n1 | -8.0% |
| CCOC(=O)C(NC(C)=O)C(OC(C)=O)c1cccc(N(CCO)CCO)c1 (stereo not drawn) | -10.0% |
| O=C1CC(Nc2ccc3ccccc3c2)C(=O)N1Cc1ccccc1 (stereo not drawn) | -4.6% |
| CCC(Oc1ccccc1)C(=O)Nc1nnc(C)s1 (stereo not drawn) | -4.2% |
| CC(C)(C)c1cc(=O)n2c(C#N)c(C#N)nc2[nH]1 | u |
| CC(C)c1ccc(NC(=O)COc2ccc(S(=O)(=O)N3CCOCC3)cc2)cc1 | 5.2% |

Some of the compounds tested; rates above refer to the full screens.
